HPGD block: qHTS Assay for Inhibitors of HPGD (15-Hydroxyprostaglandin Dehydrogenase). 15-hydroxyprostaglandin dehydrogenase [NAD(+)] (Homo sapiens), P15428. purified HPGD, NADH fluorescence kinetic, PGE2 substrate. Potency, µM, for the others: at the top dose activity change, negative = inhibition, most hits filed as inhibitors. 150,000 compounds, 4.3% hits. AID 894, 2007; active = well fitted inhibition curve with a large enough effect (not every such curve was filed as active); inconclusive = small, poorly fitted or top-dose-only effect, or another doubt; inactive = no such curve, though single readings can be large or run the other way;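 also: top concentration of the series not given in the record; plate controls included wells without enzyme; inactives centre near -10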
Target sequence (P15428 whole entry, looked up): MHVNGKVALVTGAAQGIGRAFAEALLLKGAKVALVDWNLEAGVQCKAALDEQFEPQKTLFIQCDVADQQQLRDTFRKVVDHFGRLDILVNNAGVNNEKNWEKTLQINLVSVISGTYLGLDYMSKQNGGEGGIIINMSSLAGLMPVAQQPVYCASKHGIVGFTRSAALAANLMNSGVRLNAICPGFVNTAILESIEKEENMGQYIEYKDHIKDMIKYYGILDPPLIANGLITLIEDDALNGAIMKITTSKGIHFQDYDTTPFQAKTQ
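NADH formation kinetics: reaction with 30 uM PGE2 and 1 mM NAD+ (final), 20 nM enzyme, Tris-HCl pH 8 with Tween 20, after 15 min compound preincubation at room temperature. Fluorescence change, last versus first of five reads.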
Starred values were filed as active, the others as inactive; u = inconclusive; & = joins results of further samples. % is scaled to controls: 0 for no effect and ±100 for the full control effect; potency is read from the fitted curve at half-maximal effect. The list is partial; the hit share may differ from the screen's.

SMILES	HPGD block
O=C(c1ccc2c(c1)OCO2)N1CCN(c2ccccc2)CC1	-14%
CC(C)CNS(=O)(=O)c1ccc(OCC(=O)Nc2ccc3c(c2)OCO3)c(Cl)c1	-4%
Cn1c(=O)c2c(nc(CN3CCN(Cc4ccccc4)CC3)n2Cc2ccc(Cl)cc2)n(C)c1=O	-2%
COc1ccc(NC(=O)CC2Sc3ncnn3C2=O)cc1 (stereo unspecified)	7.9µM*
O=S(=O)(NCCNC/C=C/c1ccc(Br)cc1)c1cccc2cnccc12	-25%
Cc1ccc2oc(=O)n(Cc3ccccc3OC(C)C)c2c1	u
O=C(O)CC(CC(=O)O)n1cccc1	-6%
Cc1csc(SCC(=O)Nc2ncc(Cl)c(C)c2Cl)n1	-9%
COc1ccccc1NC(=O)c1cc(C(=O)O)ccc1C(=O)O	0%
O=[N+]([O-])c1ccc(Cl)cc1CNc1ccc(F)c(F)c1	-11%
Cc1ccc(C)c(-n2c(C)cc(/C=N/NC(=O)c3c(C)nc4cc(C)ccn34)c2C)c1	u
COc1ccc(Cl)cc1NS(=O)(=O)c1ccc(S(=O)(=O)N2CCCC2)cc1	-7%
CC(C)(C)c1ccc(S(=O)(=O)N(CCCN2CCOCC2)Cc2cccs2)cc1	25µM*
Cc1c(N/N=C(\C#N)C(=O)c2ccc(Cl)cc2)c(=O)n(-c2ccccc2)n1C	28µM*
CCOC(=O)c1ccccc1NC(=O)CSc1nc2ccccc2n1CC(=O)N1CCCC1	0%
CCOC(=O)c1cccc(NC(=O)COC)c1	-15%
CCC(C)[C@@H](NC(=O)OC(C)(C)C)c1nnc(S(=O)(=O)Cc2cccc(C)c2)o1 (stereo partly specified)	14µM*
COc1ccccc1-c1cc(C(=O)NCc2ccc(F)cc2)no1	-26%
COC(=O)CNC(=O)C12CC3(C)CC(C)(CC(C)(C3)C1)C2	-11%
Cc1cccc(CCNS(=O)(=O)c2cnc[nH]2)c1	4%
CC(=O)Nc1ccc2c(c1)CCCN2C(=O)c1ccccc1	0%
N#CC1=C(N)Oc2cc3ccccc3cc2C1c1cccnc1 (stereo unspecified)	28µM*
Cc1nc2sc(C(c3cccs3)N3CCN(C(=O)c4ccco4)CC3)c(O)n2n1 (stereo unspecified)	-18%
O=C(c1ccc2c(c1)C(=O)N(Cc1ccco1)C2O)N1CCOCC1 (stereo unspecified)	-6%
CC(C)Oc1cccc(C(=O)NC(=S)Nc2ccccc2)c1	-20%
Next section.
SMILES	HPGD block
COc1ccc2c(C(F)(F)F)cc(=O)oc2c1C	u
COC(=O)CSc1nc(C2CC2)nc2ccccc12	-4%
CCN(C1CCCCC1)S(=O)(=O)c1cc(C)ccc1OC	-3%
N#C/C(=C/c1ccc(Sc2nc3ccccc3[nH]2)o1)c1ccccc1F	u
C=C(C)Cn1c(SCC(=O)O)nnc1-c1ccc(OC)cc1	-1%
CCC1=NN(C(=O)c2ccc(Br)cc2)C(O)(c2ccccc2)C1 (stereo unspecified)	-14%
Cc1nc2ccc(NC(=O)c3c(-c4ccccc4)noc3C)cc2s1	-6%
COc1ccc(C2(CNC(=O)c3cccc([N+](=O)[O-])c3)CCCCC2)cc1OC	0%
CC1=C(C(=O)OCCNC(=O)c2cccnc2)C(c2cccc([N+](=O)[O-])c2)C(C(=O)OCCN(C)C)=C(C)N1 (stereo unspecified)	-2%
CCC(C)c1ccccc1NC(=O)COC(=O)CCc1cc(OC)c(OC)c(OC)c1 (stereo unspecified)	-3%
CCOc1cccc(C(=O)Nc2ccc(N3CCN(S(C)(=O)=O)CC3)cc2)c1	-8%
Cc1nc(NCc2ccccc2)c2nc(-c3ccccc3)n(CCN3CCCCC3)c2n1	u
CN(C)c1ccc(C(=O)c2ccc(O)cc2O)cc1	u
Cc1ccc(CSCCNC(=O)c2ccc(Cl)c(S(=O)(=O)N3CCOCC3)c2)cc1	-5%
NC(=O)c1c(NC(=O)COC(=O)CSc2nnc(-c3ccc(Cl)cc3)o2)sc2c1CCC2	u
CCCCN(CCCC)S(=O)(=O)c1ccc(C(=O)Nc2nnc(COC)o2)cc1	-3%
CCOC(=O)/C(=C/C=C1\Sc2ccccc2N1CC)C(C)=O	28µM*
COc1cccc(CNC(=O)C2CCN(Cc3cnn(-c4ccccc4)c3-n3cccc3)CC2)c1	-26%
Cc1ccc(S(=O)(=O)N2CCC(=O)N(CCOCc3ccc(C(F)(F)F)cc3)CC2)cc1	-8%&-6%
COC(=O)C1=C(C)NC(=O)NC1c1ccc([N+](=O)[O-])o1 (stereo unspecified)	-10%
CCOc1ccc(-n2c(C)nnc2SCC(=O)N(CC)CC)cc1	0%
Cc1ccccc1OCC(=O)NNC(=S)NC(=O)c1ccco1	-5%
CC(=O)c1cc(NC(=O)c2cccc(C(F)(F)F)c2)c(=O)oc1/C=C/N(C)C	2%
COc1ccc(C2CC(C(F)(F)F)n3nc(C(=O)N(C)Cc4cn(C)nc4C)c(Cl)c3N2)cc1 (stereo unspecified)	-6%
COc1ccc(C2CC(=O)Nc3sc(=N)c4c(N)c(C#N)c(N)nc4c32)cc1OC (stereo unspecified)	u

Some of these compounds in order of molar mass, low to high.
SMILES	HPGD block
CN(C)c1ccc(C(=O)c2ccc(O)cc2O)cc1	u
CCOC(=O)/C(=C/C=C1\Sc2ccccc2N1CC)C(C)=O	28µM*
Cc1ccc(CSCCNC(=O)c2ccc(Cl)c(S(=O)(=O)N3CCOCC3)c2)cc1	-5%

The listing continues.
SMILES	HPGD block
Cc1ccc(CNC(=O)Cn2c([N+](=O)[O-])cnc2C)cc1	-18%
O=C(OCc1ccccc1)c1ccccc1O	-5%
O=C(CN1C(=O)CSC1=O)N1CCCCC1	-1%
Cc1c(N/C(=N/S(=O)(=O)c2ccccc2)c2ccc(Cl)cc2)c(=O)n(-c2ccccc2)n1C	-5%
COc1cc(-c2nnc(SCC(=O)/C(C#N)=C(\C)N)o2)cc(OC)c1OC	-17%
CCOc1nc(-c2ccccc2)ccc1-c1noc(-c2cccs2)n1	-29%
O=S(=O)(c1ccc2c(c1)OCCO2)N1CCC(c2nc3ccccc3[nH]2)CC1	0%
CC(=O)Nc1ccccc1N(CC(O)Cn1c2ccccc2c2ccccc21)S(=O)(=O)c1ccc(C)cc1 (stereo unspecified)	6%
O=C(Nc1cccc2ncccc12)C12CC3CC(CC(C3)C1)C2	-18%
CCOC(=O)c1sc(NC(=O)CSc2nnc(-c3ccco3)o2)c(C(=O)OCC)c1C	-19%
CCOCCCNC(=O)c1ccccc1Br	10µM*
CCN(CC)S(=O)(=O)c1ccc(OC)c(NC(=O)CSc2ccccc2)c1	-15%
CCCCCCCCNC(=O)CCNC(=O)c1ccc(C(C)(C)C)cc1	-13%
O=C(NCc1ccc2c(c1)OCO2)C1CCCN1C(=O)Nc1ccccc1 (stereo unspecified)	-12%
CC(=O)Oc1ccc2oc3c(c2c1)C(=O)CCC3	-4%
COc1ccc(C(=O)Nc2ccc(CN3CCOCC3)cc2)cc1	1%
O=C(COc1ccc(Cl)cc1Cl)NC(=O)N1CCOCC1	-2%
Cc1ccc(/C(O)=C2/C(=O)C(=O)N(CCN3CCOCC3)C2c2cccnc2)cc1 (stereo unspecified)	-20%
O=C(CCNC(=O)OCc1ccccc1)NC1CCCCCC1	-4%
Cc1ccc(C(=O)CCCn2nnc(-c3cccnc3)n2)cc1C	-9%
COc1ccc(/C=N/NC(=O)c2nc(-c3ccccc3)cc(-c3ccccc3)n2)cc1O	-10%
CCOC(=O)c1ccc(NS(=O)C23CC4CC(CC(C4)C2)C3)cc1 (stereo unspecified)	u
CCCCCCCC(=O)NC(Nc1ccccc1OC)C(Cl)(Cl)Cl (stereo unspecified)	-4%
CN(C(=O)OCc1ccccc1)C(CC(N)=O)C(=O)O (stereo unspecified)	-6%
N#C[C@@H]1[C@@H]2C(=O)N(c3ccc4c(c3)OCCO4)C(=O)[C@@H]2C2c3ccccc3C=CN21 (stereo partly specified)	u
Additional records.
SMILES	HPGD block
Cc1c(C(=O)N2CCC(C)CC2)sc2ncnc(N3CCN(c4ccccc4)CC3)c12	-27%
C[C@@H](C(=O)NCCc1c[nH]c2ccccc12)[C@H]1C[C@]1(C)[C@H](NC(=O)OCc1ccccc1)c1ccccc1	-19%&-10%
CC(C)C[C@@H](CC(=O)N[C@@H](CCC(=O)O)CC(=O)O)NC(=O)[C@@H]1CCCC[C@H]1NC(=O)C[C@@H](NC(=O)C[C@H](CO)NC(=O)[C@@H]1CCCC[C@H]1N)C(C)C	-10%
COc1ccc(-c2nnc(SCC(=O)NNC(=O)Cc3ccccc3)n2C)cc1OC	-15%
CCCCN=c1scc(-c2ccc3c(c2)NC(=O)CO3)n1N=C1CCCC1	u
CC(C)NC[C@H]1CCc2cc(CO)c([N+](=O)[O-])cc2N1	0%
O=C(CSc1ccccc1)Nc1ccc(NC(=O)c2ccco2)cc1	-7%
O=C(CSC1=NC(=O)C(Cc2ccccc2)C(=O)N1)NC1CCCCC1 (stereo unspecified)	1%
CCOC(=O)C(C)Sc1nnc(Cc2cc(=O)[nH]c(=O)[nH]2)n1-c1ccc(OCC)cc1 (stereo unspecified)	-3%
Cc1ccc(CSc2ncn(-c3ccccc3)n2)cc1	20µM*
Cc1cc(NC(=O)C2CCCCC2)ccc1NC(=O)c1ccccc1Cl	-10%
Cc1ccc(-c2nnn(CC(=O)N(CC3CCCO3)C(C(=O)NC3CCCC3)c3ccc(F)cc3)n2)o1 (stereo unspecified)	-18%
CCCC1(CCC)NC(=O)NC1=O	-3%
CCc1cccc2c(=O)c(C(=O)N3CCOCC3)c[nH]c12	-7%
CCOCCCNS(=O)(=O)c1ccc(Br)cc1	4%
CCCn1c(=S)[nH]c2cc(OC)c(OC)cc2c1=O	-9%
CC(Cc1ccccc1)N/C=C1/CC(=O)NC1=O (stereo unspecified)	-25%
CCCCOc1ccc(C(=O)Oc2ccc(C)nc2)cc1	-19%
Cc1c(Cl)cccc1NC(=S)NCc1ccccc1Cl	22µM*
CS(=O)(=O)N(CC(=O)N1CCC(C(N)=O)CC1)c1ccc(Oc2ccccc2)cc1	-4%
Cc1sc2ncn(C(C)C(=O)OC3CCCCC3)c(=O)c2c1C (stereo unspecified)	-12%
O=C(OCc1nc2ccccc2[nH]1)C12CC3CC(CC(C3)C1)C2	-7%
COC(=O)C1=C(NC(=O)COc2ccc(Cl)cc2Cl)CCS1	-9%
Cc1ccccc1-n1c(Cc2cccs2)n[nH]c1=S	u
O=C(CSc1nc2ccccc2[nH]1)Nc1nc(-c2cccc(Br)c2)cs1	-26%

Retrieved by compound from above, 2 records:
SMILES	HPGD block
Cc1c(C(=O)N2CCC(C)CC2)sc2ncnc(N3CCN(c4ccccc4)CC3)c12	-27%
CC(C)NC[C@H]1CCc2cc(CO)c([N+](=O)[O-])cc2N1	0%

Entries listed above shown as hits in HPGD block.
SMILES	HPGD block
COc1ccc(NC(=O)CC2Sc3ncnn3C2=O)cc1 (stereo unspecified)	7.9µM*
CC(C)(C)c1ccc(S(=O)(=O)N(CCCN2CCOCC2)Cc2cccs2)cc1	25µM*
Cc1c(N/N=C(\C#N)C(=O)c2ccc(Cl)cc2)c(=O)n(-c2ccccc2)n1C	28µM*
CCC(C)[C@@H](NC(=O)OC(C)(C)C)c1nnc(S(=O)(=O)Cc2cccc(C)c2)o1 (stereo partly specified)	14µM*
N#CC1=C(N)Oc2cc3ccccc3cc2C1c1cccnc1 (stereo unspecified)	28µM*
CCOC(=O)/C(=C/C=C1\Sc2ccccc2N1CC)C(C)=O	28µM*
CCOCCCNC(=O)c1ccccc1Br	10µM*
Cc1ccc(CSc2ncn(-c3ccccc3)n2)cc1	20µM*
Cc1c(Cl)cccc1NC(=S)NCc1ccccc1Cl	22µM*

The list continues:
SMILES	HPGD block
O=C(Nc1ccccc1C(F)(F)F)c1ccc(CN2CCC(Cc3ccccc3)CC2)cc1	-6%
COc1cccc(NC(=O)C2CCN(c3ncccn3)CC2)c1	-11%
CCOC(=O)c1ccc(Oc2nc(NC(C)(C)C)nc(N(C)C)n2)cc1	-16%
Cc1ccc(C(=O)CCC2CCCC2=O)cc1 (stereo unspecified)	-13%
O=[N+]([O-])c1cccc(/C=N/Nc2nc(C(Cl)(Cl)Cl)nc3ccccc23)c1	-10%
O=C1NC(c2cccs2)Nc2ccccc21 (stereo unspecified)	u
CSC1=NCCN1C(=O)c1ccc(Br)o1	-22%
COCCCN(C(=S)Nc1ccc(C)cc1Cl)C(C)c1ccncc1 (stereo unspecified)	-8%
O=C(Cn1[nH]c(=O)c2ccccc2c1=O)OCC(=O)N1CCCc2ccccc21	-11%
CCC(=O)Nc1cc(C(C)C)c(O)cc1C	1%
C/C(=N\N=C(/N)SC1CC(=O)N(c2ccc(Cl)c(Cl)c2)C1=O)c1cccs1 (stereo unspecified)	-20%
Cc1c(C)n(C(=O)CSc2nccn2C)c2ccccc12	-14%
Cc1ccc(/C=C(/NC(=O)c2ccccc2)C(=O)NCCc2c[nH]c3ccccc23)o1	-23%
CC(=O)Nc1ccc(S(=O)(=O)N(C)CC(=O)OCC(=O)Nc2ccc3c(c2)OCO3)cc1	-14%
COC(=O)c1ccc(Oc2ccc3nncn3n2)cc1	2%
COc1ccc(NC(=O)CN(C)S(=O)(=O)c2ccc3c(c2)CCC(=O)N3)c(OC)c1	-6%
N[C@@H](Cc1cc(I)c(O)c(I)c1)C(=O)O	-8%
CCOC(=O)/C(C#N)=N/Nc1ccccc1OC	-1%
Clc1cccc2sc(N3CCCC3)nc12	-14%
Cc1ccc2nc(C)c3c(c2c1)COC3	-4%
O=[N+]([O-])c1ccc(Oc2c(F)c(F)nc(N3CCCC3)c2F)cc1	-13%
CN1CCN(C2=NC3(CCCC3)C(C#N)C(=O)N2)CC1 (stereo unspecified)	-17%
CCCCNS(=O)(=O)c1ccc(NC(=O)C2c3ccccc3Oc3ccccc32)cc1	-6%
CCOC(=O)/C(C#N)=C1\CCCN1CC(N)=S	u

Screens from PubChem.
